# CapD inh – CapD enzyme inhibition. purified CapD enzyme, fluorescence intensity read-out; hits give low values; some hits fall short of the stated cut. z-score (concentration not given with the values). AID 492967. 140,000 tested, 0.23% active;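 active means z-score under -4 in either of two replicates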;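 further: stock transfer was 100 nL into about 40 µL; score is relative to mean and spread of the plate; one replicate is shown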
# AID504770 – E. coli YBA685 growth inhibition, screen for V. cholerae RctB inhibitors; E. coli YBA685 rctB-dependent plasmid, OD600 growth, 3 h; hits give low values; 130,000 tested, 0.27% active; z-score (concentration not given with the values);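 active means z-score under -2 on both plates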;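 further: wells of about 30 µL received 100 nL stock; score is relative to mean and SD of the test wells; the first replicate is given; strong numbers were not always called active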
# * hit, by the source's call; x = no result given; & = joins results of further samples.
SMILES,CapD inh,AID504770
CC1(C)C2CC=C(/C=N/n3cnnc3)C1C2 (configuration not stated),0.12,-0.4
O=C(c1ccccc1)c1cccc(NC(=O)C2CC2)c1,0.2,-0.55
O=C(COc1ccc(C2N(Cc3ccccc3)CCN2Cc2ccccc2)cc1)N1CCOCC1,43,-0.7
N/C(=N\O)c1ccc(OC(F)(F)F)cc1,0.35,-0.45
COc1ccc(CCNC(=O)CCn2c(SCc3cccc([N+](=O)[O-])c3)nc3ccccc3c2=O)cc1OC,-0.03,x
O=S(=O)(Cc1cc(N2CCCC2)nc(-c2ccccc2)n1)c1ccccc1,-0.38,x
COc1ccc(C(=O)OCC(=O)Nc2ncc(Cl)c(C)c2Cl)c(OC)c1,x,-0.5
O=C(c1cc2sccc2n1Cc1ccccc1)N1CCN(c2ccccc2F)CC1,x,0.2
O=C1OC(NS(=O)(=O)c2ccc(Cl)cc2)c2ccccc21 (configuration not stated),0.36,-0.2
O=C(CSc1ncccc1C(F)(F)F)Nc1ccc(Cl)cc1,-1.1,0.6
COC(=O)Cn1c(=NC(C)=O)sc2cc(Br)ccc21,-0.26,-0.15
Cc1cccc(NC(=O)C(C)N2CCNC(=O)C2)c1 (configuration not stated),x,0.1
Cc1c(C)c2c(c(C)c1O)CCC(C)(C(=O)O)O2 (configuration not stated),0.46,x
CC1CCC(=NO)CC1 (configuration not stated),x,-0.4
Cc1cc(-c2c(C)[nH]n(-c3nc(-c4ccccc4)cs3)c2=O)n(C(C)(C)C)n1,-0.61,x
Cc1c(NC(=O)c2ccc(C(=O)O)cc2C(=O)O)c(=O)n(-c2ccccc2)n1C,0.38,-0.4
NC(=O)CSc1nnc(SCCOc2ccccc2)s1,0.27,0.55
Cc1ccc(Oc2nc3ccccc3n3c(C)nnc23)cc1C,0.02,-0.8
CCOc1ccc(-c2cc(CCCC(=O)NCCc3ccccc3)no2)cc1,0.6,0.15
CC(=O)Nc1ccc(S(=O)(=O)N(C)CC(=O)OCc2cn3cc(Cl)ccc3n2)cc1,x,-0.1
COc1cc(NC(=O)C(C)(C)C)ccc1Br,0.55,0.2
CCCC(CCC)C(=O)Nc1ccc2c(c1)N(C(=O)CCN1CCN(C)CC1)c1ccccc1CC2,-0.76,x
COc1ccc2nc3oc(C(=O)Nc4ccc(F)cc4F)cc3cc2c1,1.5,x
O=c1cc(-c2ccccc2)nc(-c2ccc(Br)cc2)[nH]1,-0.15&-0.14,0.55&2
COC(=O)c1ccc(Oc2ccc(Cl)cc2Cl)o1,0.68,-0.15

# Compound profiles, as listed above. Order of values: CapD inh	AID504770
# `COC(=O)Cn1c(=NC(C)=O)sc2cc(Br)ccc21` is listed with -0.26	-0.15
# `CCCC(CCC)C(=O)Nc1ccc2c(c1)N(C(=O)CCN1CCN(C)CC1)c1ccccc1CC2` is listed with -0.76	x

# Next section.
SMILES,CapD inh,AID504770
Fc1cccc(Cl)c1CN1CCN(CCCNc2nccc(C(F)(F)F)n2)CC1,0.18,0.5
CCn1nnc2sc(-c3ccccc3)cc2c1=O,4.8,-0.8
O=C(CN1C(=O)/C(=C/c2ccc(Br)cc2)SC1=S)Nc1nccs1,-0.91,x
CCOc1cc(-c2nc3sc4c(c3c(=O)[nH]2)CCCC4)ccc1OCCOc1ccc(C(C)CC)cc1 (configuration not stated),-0.17,x
CC(C)(C)NC(=O)c1ccc(COc2ccc(Cl)cc2Cl)o1,0.025,0.05
CC(=O)N1CCc2cc(S(=O)(=O)Nc3ccc(Cl)cc3)ccc21,-0.05,1.1
Cc1nc(-c2ccc(S(=O)(=O)NCCN(C)C)s2)cs1,5,2.1
O=C(CCc1nnc2n(Cc3ccc(F)cc3)c(=O)c3ccccc3n12)N1CCOCC1,0.21,-0.6
O=C(CSc1ccccn1)Nc1ccc(Cl)cc1,x,-0.5
CCOc1ccc(-c2c(C)[n+]3c(n2-c2ccc(OCC)cc2)CCCCC3)cc1,0.14,x
CCOC(=O)c1cc(-c2cccc(C(F)(F)F)c2)n[nH]1,x,-0.1
CN(c1ccc2nc3ccccc3c(=O)n2n1)C1CCCCC1,-1.2,-0.65
O=C(O)CCC(=O)N1CCN(c2nc(-c3ccccc3)c3cc(Br)ccc3n2)CC1,-0.82,-0.15

# In a second layout: entries from further up.
# Each structure is followed by: CapD inh | AID504770
COc1cc(NC(=O)C(C)(C)C)ccc1Br
  0.55 | 0.2
CCCC(CCC)C(=O)Nc1ccc2c(c1)N(C(=O)CCN1CCN(C)CC1)c1ccccc1CC2
  -0.76 | x
COc1ccc2nc3oc(C(=O)Nc4ccc(F)cc4F)cc3cc2c1
  1.5 | x
O=c1cc(-c2ccccc2)nc(-c2ccc(Br)cc2)[nH]1
  -0.15&-0.14 | 0.55&2
COC(=O)c1ccc(Oc2ccc(Cl)cc2Cl)o1
  0.68 | -0.15
Fc1cccc(Cl)c1CN1CCN(CCCNc2nccc(C(F)(F)F)n2)CC1
  0.18 | 0.5
CCn1nnc2sc(-c3ccccc3)cc2c1=O
  4.8 | -0.8
O=C(CN1C(=O)/C(=C/c2ccc(Br)cc2)SC1=S)Nc1nccs1
  -0.91 | x
CCOc1cc(-c2nc3sc4c(c3c(=O)[nH]2)CCCC4)ccc1OCCOc1ccc(C(C)CC)cc1 (configuration not stated)
  -0.17 | x
CC(C)(C)NC(=O)c1ccc(COc2ccc(Cl)cc2Cl)o1
  0.025 | 0.05
CC(=O)N1CCc2cc(S(=O)(=O)Nc3ccc(Cl)cc3)ccc21
  -0.05 | 1.1
Cc1nc(-c2ccc(S(=O)(=O)NCCN(C)C)s2)cs1
  5 | 2.1
O=C(CCc1nnc2n(Cc3ccc(F)cc3)c(=O)c3ccccc3n12)N1CCOCC1
  0.21 | -0.6
O=C(CSc1ccccn1)Nc1ccc(Cl)cc1
  x | -0.5
CCOc1ccc(-c2c(C)[n+]3c(n2-c2ccc(OCC)cc2)CCCCC3)cc1
  0.14 | x
CCOC(=O)c1cc(-c2cccc(C(F)(F)F)c2)n[nH]1
  x | -0.1
CN(c1ccc2nc3ccccc3c(=O)n2n1)C1CCCCC1
  -1.2 | -0.65
O=C(O)CCC(=O)N1CCN(c2nc(-c3ccccc3)c3cc(Br)ccc3n2)CC1
  -0.82 | -0.15

# High-throughput results from PubChem BioAssay.
